Screening results: PubChem BioAssay, several laboratories
Beta2AR agonist: agonists of human beta-2 adrenergic receptor inducing internalization | hit rate 0.43% among 340,000 | P07550 | Am2.2-beta2AR cells, FAP receptor internalization, flow cytometry; reference of the scale not given here | response, % (test concentration not listed);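 active means response above a set limit, near 3 SD of response in nonfluorescent compounds, cut at about 42% in these data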;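 further: stock transfer was 100 nL into about 11 µL; a reference agonist was the positive control; negative values mostly stem from fluorescent compounds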
Target sequence (P07550 whole entry, looked up): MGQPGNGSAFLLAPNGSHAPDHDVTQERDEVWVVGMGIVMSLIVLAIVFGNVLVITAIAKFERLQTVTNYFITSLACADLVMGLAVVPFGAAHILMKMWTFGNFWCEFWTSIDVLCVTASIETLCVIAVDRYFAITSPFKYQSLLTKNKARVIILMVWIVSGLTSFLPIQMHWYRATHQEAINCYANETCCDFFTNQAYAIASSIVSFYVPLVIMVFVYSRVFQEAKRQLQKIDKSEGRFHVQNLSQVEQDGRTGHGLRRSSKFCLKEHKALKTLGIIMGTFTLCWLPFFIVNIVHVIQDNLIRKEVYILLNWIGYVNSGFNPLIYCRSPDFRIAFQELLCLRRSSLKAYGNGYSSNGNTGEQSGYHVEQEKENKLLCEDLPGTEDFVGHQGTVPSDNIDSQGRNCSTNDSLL
Bfl-1 A1 inh: inhibitors of the anti-apoptotic protein A1, read as caspase activation. MEF A1-2A-BIM cells, Caspase-Glo 3/7 luminescence, 3 h; percent of clofoctol response, vehicle zero. caspase activation, % (concentration not given with the values). hit rate 0.066% among 330,000. AID 2462;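 active means over half of replicate activation scores above 10%, or exactly half above 10 with the replicate mean above 10; inconclusive means replicate mean below 10 yet half the replicates above 10; inactive means over half of replicates below 10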;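 further: wells of about 30 µL received 50 nL stock; many hits fall short of the cut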
Ecoli growth: E. coli growth inhibition | Escherichia coli growth, OD600, 23 h; stronger effect = lower value | OD600 absorbance (test concentration not listed) | hit rate 0.21% among 330,000 | AID 1053175;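 active means OD600 absorbance below the run mean of sample wells minus 3.6 SD, in any replicate, cut at about 0.56 in these data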;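 further: stock transfer was 300 nL into about 60 µL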
LANA-H2A inh: blocks KSHV LANA binding to histone H2A/H2B; Q9QR71; cell-free LANA-H2A/H2B peptide, fluorescence polarization; inhibition, % (concentration not given with the values); hit rate 0.6% among 320,000; AID 2629; in the data active means inhibition mostly above about 10%, no sharp cut-off; inactive means mostly below about 6.7%;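 further: stock transfer was 7.5 nL into about 10 µL; 0% = median of vehicle wells and 100% = median of positive control wells; one replicate is shown; the record names a cut of 25% in any replicate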
HNF4A DNA FP: change in binding of human HNF4 alpha to DNA; P41235; HNF4a-FITC DNA binding, fluorescence polarization, 1 h; activity change, % at 10 µM; hit rate 0.3% among 360,000; in the data active means activity change above about 30%, passing the limit was not always enough;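 further: controls were the assay level and a saturating level of protein; the project sought stronger binding though the title names inhibitors; some compounds called inactive have numbers as strong as hits; positive values seem to mean higher polarization but the record does not say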
Target sequence (P41235 whole entry, looked up): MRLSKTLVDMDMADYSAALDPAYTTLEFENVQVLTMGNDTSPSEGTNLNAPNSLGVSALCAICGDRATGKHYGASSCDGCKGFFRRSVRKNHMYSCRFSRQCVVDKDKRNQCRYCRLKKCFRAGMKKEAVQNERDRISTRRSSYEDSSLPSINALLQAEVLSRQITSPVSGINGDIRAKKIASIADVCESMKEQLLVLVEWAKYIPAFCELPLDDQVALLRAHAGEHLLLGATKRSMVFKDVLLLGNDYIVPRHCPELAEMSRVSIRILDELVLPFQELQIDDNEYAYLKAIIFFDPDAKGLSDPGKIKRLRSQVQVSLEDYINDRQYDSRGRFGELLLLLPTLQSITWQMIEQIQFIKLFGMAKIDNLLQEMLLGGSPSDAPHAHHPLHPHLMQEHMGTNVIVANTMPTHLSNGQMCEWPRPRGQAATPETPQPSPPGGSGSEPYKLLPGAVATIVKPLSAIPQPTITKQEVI
Vif TR-FRET: inhibitors of Vif binding to APOBEC3G peptide, primary screen, biochemical, TR-FRET, GST-Vif 1-94, biotin-A3G peptide, dose response retest (AID 1117319); inhibition, %; hits with a dose series show IC50 in µM; TR-FRET GST-Vif / biotin-A3G peptide binding; higher % means a stronger effect; test concentration not given here; strong numbers were not always called active; hit rate 0.57% among 260,000;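 active means above the screen mean plus three standard deviations and confirmed in dose response; inconclusive means results disagree or hit not tested in dose response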;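 further: Vif residues 1-94 fused to GST binding biotinylated APOBEC3G peptide 110-148; 0% = full assay without inhibitor and 100% = GST in place of GST-Vif; retest series ran down from 100 µM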
UCH37 inh: blocks the human deubiquitinase UCH37; AID 588478; purified proteasome/UCH37, Ub-AMC cleavage fluorescence; inhibition, % (test concentration not listed); hit rate 0.33% among 330,000;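 active means mean of two replicates above 20%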;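 further: 0% = compound-free wells with enzyme and 100% = wells lacking proteasome; stock transfer was 100 nL into about 20 µL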
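Assay system: Proteasome-bound UCH37. Buffer or medium: pH 7.4 Tris-HCl (50 mM) with ovalbumin, ATP-MgCl2, DTT. Incubation: 30 min preincubation with enzyme, 25 min cleavage at room temperature. Measured by: fluorescence, ex 355 nm, em 460 nm. Read-out basis: percent inhibition. Control set: wells without proteasome as full block, compound-free enzyme plus substrate as uninhibited.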
Starred values were filed as active, the others as inactive; ? = inconclusive; nt = not tested or not shown; & = joins results of further samples.

SMILES | Beta2AR agonist | Bfl-1 A1 inh | Ecoli growth | LANA-H2A inh | HNF4A DNA FP | Vif TR-FRET | UCH37 inh
CC(OC(=O)CCCN=C1NS(=O)(=O)c2ccccc21)C(=O)Nc1ccccc1F (stereo unspecified) | 2.0 | -0.7 | 0.597 | 9.2 | -0.3 | -7.8% | -4.6
Cc1cc(C)c(-c2csc(Cc3nc(-c4cc5ccccc5oc4=O)cs3)n2)cc1C | 15.8 | 0.3 | 0.723 | -0.8 | 2.8 | ? | -109.6
CC(=O)Nc1ccc(C(=O)CN2C(=O)NC3(CCCCCC3)C2=O)c(F)c1 | -1.7 | 0.3 | 0.72 | 3.8 | -2.7 | 0.8% | 0.8
COc1ccccc1CNC(=O)c1ccc(OC(F)F)c(OC)c1 | 0.9 | 1.0 | 0.661 | nt | 1.4 | 3.4% | -3.1
Cc1c(-c2nc(N)nc(Nc3ccccc3F)n2)oc2ccccc12 | 2.8 | -0.2 | 0.685 | 3.1 | 1.2 | -5.9% | -17.9
O=C(NCC(=O)N1CCN(c2ccccc2F)CC1)c1ccco1 | 1.5 | nt | 0.685 | nt | 1.5 | nt | -0.7
CCOc1cc(C(=O)N2CCC(CC3CC(c4ccc(Cl)cc4)=NO3)(C(=O)NCC3CCCCC3)CC2)cc(OCC)c1OCC (stereo unspecified) | -0.1 | 0.0 | 0.703 | 2.6 | -0.8 | nt | -2.1
Cc1cc(OC(C)C(=O)NC(Cc2c[nH]c3ccc(O)cc23)C(=O)O)c2c(C)c(C)c(=O)oc2c1 (stereo unspecified) | -0.4 | 0.5 | 0.699 | -7.9 | 2.0 | nt | -24.9
O=C(CSc1nc2ncc(Cl)cc2[nH]1)NC1CCS(=O)(=O)C1 (stereo unspecified) | -8.2 | -0.2 | 0.724 | -1.5 | 0.9 | 1.1% | -0.5
Brc1ccc(CSc2nnc(-c3cnccn3)n2Cc2ccco2)cc1 | -9.6 | -0.1 | 0.64 | 1.5 | 0.5 | -1.5% | 4.3
COc1cccc(-c2cc(C(=O)N3CC4(C)CC3CC(C)(C)C4)no2)c1 (stereo unspecified) | -4.0 | -0.6 | 0.686 | -1.3 | -2.2 | -3.1% | 1.4
Cc1cc2c(cc(C(=O)OCC(=O)NCc3cccs3)n2C(C)C)o1 | 29.7 | -0.3 | 0.668 | 6.2 | 0.6 | 5.0% | 1.3
CSc1nc(O)c(N=Nc2ccc(F)cc2F)c(=O)[nH]1 | 8.0 | -8.5 | 0.61 | 1.4 | 3.0 | -1.8% | 11.3
Cc1ccc(NC(=O)COC(=O)CC2CC3CCC2C3)cc1S(=O)(=O)N1CCOCC1 (stereo unspecified) | -3.5 | 0.9 | 0.708 | 3.5 | -7.3 | -4.8% | 0.9
COc1cccc(C(O)c2nc3ccccc3n2C(C)C)c1 (stereo unspecified) | 2.8 | 0.0 | 0.644 | 1.1 | 3.1 | -4.6% | 1.6
Cc1[nH]c2c(C)cccc2c1CCNC(=O)C1CCCCC1C(=O)OCC(F)(F)F (stereo unspecified) | -0.4 | 0.1 | 0.726 | -2.3 | 0.7 | nt | -2.3
CCSc1nnc(NC(=O)CSc2nnc(C)c(=O)n2N)s1 | -5.5 | 0.0 | 0.679 | 1.4 | -4.8 | -9.3% | 2.4
CSc1nc2[nH]ncc2c(=O)[nH]1 | -8.1 | 0.8 | nt | 1.1 | -0.9 | 15.5% | nt
Cc1ccc(-n2c(C)nc3c(cnn3-c3ccc(F)cc3)c2=O)cc1C | 22.1 | 0.3 | 0.717 | 0.9 | 0.5 | -6.1% | 1.3
O=C(O)CSc1nccc2ccccc12 | 4.9 | 0.2 | 0.681 | -9.7 | -2.4 | nt | 5.8
O=C(COc1coc(CN2CCN(c3ccccc3)CC2)cc1=O)NCC1CCCO1 (stereo unspecified) | -3.4 | -2.5 | 0.641 | 4.7 | -0.3 | 4.5% | 0.5
C=CCn1c(C)cc(C(=O)CSc2nnc(-c3cccc(S(=O)(=O)N(CC)CC)c3)o2)c1C | -9.2 | -0.6 | 0.795 | 6.6 | 0.3 | 3.9% | 3.0
CCN(CC)S(=O)(=O)c1ccc2c(c1)nc(CCC(=O)Nc1cccc(C(F)(F)F)c1)n2CC | 6.5 | 0.1 | 0.654 | 1.8 | -1.2 | -0.8%&-0.7% | 4.3
CCN1CCN(CCNC(=O)c2ccc3nc(-c4cccc(C)c4)c(-c4cccc(C)c4)nc3c2)CC1 | 11.1 | 1.4 | 0.69 | 6.9 | 3.0 | nt | -405.8
Cc1ccc(NC(=O)C2CCCN(S(=O)(=O)c3c(C)noc3C)C2)cc1 (stereo unspecified) | 16.0 | -0.7 | 0.708 | 1.6 | 1.0 | -1.6% | 0.1
O=C(O)c1cccc(Nc2ccc3nonc3c2[N+](=O)[O-])c1 | -7.3 | 1.2 | 0.661 | 0.8 | -3.5 | nt | 5.9
CCOC(=O)N1CCN(C(=O)CN2C(=O)COc3ccc(C)cc32)CC1 | -3.5 | -0.5 | 0.645 | -9.2 | -0.6 | -3.6% | 2.2
COC(=O)c1sccc1NC(=O)Nc1ccccc1C | -3.6 | 0.1 | 0.711 | -8.1 | -0.8 | nt | 1.9
CC(=O)Nc1ccc(Nc2nc(C)nc3c2oc2ccccc23)cc1 | -4.2 | -0.1 | 0.702 | 0.9 | 1.0 | -19.5% | -62.9
CCCn1c(N)c(Sc2ccc([N+](=O)[O-])cc2)c(=O)n(CCC)c1=O | -0.4 | 1.0 | 0.717 | 7.8 | -1.1 | nt | 6.6
CN(C)C(=O)CSc1nc(-c2ccccc2)nc2c1CCCC2 | -8.5 | -0.6 | 0.685 | 0.2 | 0.0 | -3.9% | 3.5
Cn1ccnc1SCc1ccc(Cl)cc1Cl | -13.8 | 0.4 | 0.67 | -4.2 | 0.6 | nt | 5.5
COc1ccc(S(=O)(=O)N(CC(=O)NCC2CCCO2)C2CCCCC2)cc1OC (stereo unspecified) | -5.5 | 0.7 | 0.693 | -0.6 | -0.9 | 7.3% | 5.0
Cc1ccc(S(=O)(=O)N2[C@@H](c3ccccc3F)C(C(=O)O)=CC[C@H]2c2cccc(Cl)c2)cc1 | -6.4 | 1.5 | nt | 3.1 | 1.9 | nt | 3.3
Cc1ccc(C(=O)N2CCCC2)cc1S(=O)(=O)Nc1ccccc1 | 2.2 | -0.9 | 0.799 | -4.4 | 3.5 | 0.6% | 1.0
CC1CCc2cccc3c(O)cc(=O)n1c23 (stereo unspecified) | 1.5 | 0.2 | 0.709 | -0.6 | 4.7 | nt | 4.4
CCC(C)(C)NC(=O)C(c1ccc(F)cc1)N(Cc1ccc(OC)cc1)C(=O)c1cnccn1 (stereo unspecified) | 11.5 | 0.3 | 0.678 | 5.0 | 4.3 | 11.1% | 3.8
CN(C(=O)c1ccccc1C(=O)OCC(=O)c1ccc(Br)cc1)c1ccccc1 | 3.6 | 1.3 | 0.678 | -3.6 | 7.2 | nt | 0.7
CCOC(=O)c1sc(/N=C/c2c(O)ccc3ccccc23)cc1C | 3.2 | 0.2 | nt | -0.3 | -3.4 | nt | nt
CCCCc1ccc(NC(=O)CN2C(=O)C3CCCCC3C2=O)cc1 (stereo unspecified) | 5.7 | 0.2 | 0.673 | -6.8 | 5.7 | -1.3% | -0.1
CC(=O)n1c2ccccc2c2nc3ccccc3nc21 | -6.7 | -0.6 | 0.67 | 2.0 | -2.4 | nt | -25.5
Clc1cc(Br)ccc1OCCOCCN1CCCC1 | -8.2 | 1.3 | 0.669 | 1.6 | 4.7 | nt | 1.6
COc1ccc(C(=O)NCCn2cc(SCC(=O)Nc3cc(C)on3)c3ccccc32)cc1OC | 0.5 | 1.4 | 0.75 | 3.5 | 3.4 | -1.2% | -1.1
Cc1ccccc1COc1ccc2oc(C)c(C(=O)O)c2c1 | 21.3 | -1.1 | 0.684 | -1.4 | 1.3 | -3.8% | 2.9
CN(c1ccccc1)S(=O)(=O)c1nnc(NC(=O)COc2ccccc2)s1 | -1.9 | 0.2 | 0.685 | -7.2 | -5.7 | 5.2% | 3.2
COc1ccc(Cl)cc1NC(=O)Cn1nc(-c2ccc(C)cc2)n(C)c1=S | -7.6 | 0.5 | 0.667 | -0.2 | 2.1 | 3.8% | 2.2
O=C(NCCc1ccccc1)c1ccc2nccnc2c1 | 1.8 | 0.5 | 0.696 | 0.8 | 3.8 | 28.7% | 3.2
Nc1c(Cl)cc(-c2csc(N3CCCC3c3nc4cc(Cl)c(Cl)cc4n3CCCO)n2)cc1Cl (stereo unspecified) | -4.1 | 1.7 | nt | -2.5 | 0.9 | nt | nt
c1csc(-c2ccnc3ncnn23)c1 | -3.6 | 0.3 | 0.671 | 5.4 | 2.3 | -2.3% | -267.5
COC(=O)Cc1[nH]c(=S)[nH]c1C(=O)OC | 3.4 | 0.1 | 0.673 | -2.9 | 1.3 | -4.8% | 2.5
CC(C)(C)n1nnnc1C(c1ccccc1F)N1CCN(C2CCCC2)CC1 (stereo unspecified) | -3.7 | nt | 0.657 | nt | -2.1 | 26.8% | 0.7
CC(C)C(NC(=O)c1ccccc1NC(=O)c1ccco1)C(=O)NNC(=O)c1ccncc1 (stereo unspecified) | 4.2 | 0.8 | 0.661 | -12.6 | 0.2 | 6.4% | 4.0
CCn1c(C)[n+](Cc2ccccc2)c2ccc(Cl)cc21 | 3.1 | 0.7 | 0.628 | -4.1 | -0.1 | -1.2% | 0.7
O=C1OC(Nc2ccc3ncccc3c2)c2ccccc21 (stereo unspecified) | 1.6 | -1.7 | 0.656 | 15.5 | 1.0 | 8.4% | -4.0
CCN(CC)c1ccc(C(=O)OCc2c(C)noc2C)cc1 | 0.5 | 0.4 | 0.643 | -1.2 | 2.8 | -2.6% | 0.0
COC(=O)C(CCCN1C(=O)c2ccccc2C1=O)(NC(C)=O)c1nnn(C)n1 (stereo unspecified) | 1.4 | 0.8 | 0.671 | 2.5 | 0.3 | -3.5% | 4.3
CC(=O)c1cccc(NC2c3ccccc3C(=O)N2Cc2ccc3c(c2)OCO3)c1 (stereo unspecified) | -5.5 | 0.2 | 0.77 | -0.5 | -3.4 | 0.9% | 1.4
CCc1ccc(N2CC(C(=O)OCc3nc4ccsc4c(=O)[nH]3)CC2=O)cc1 (stereo unspecified) | -2.0 | 1.3 | 0.715 | 5.6 | -8.8 | nt | -2.7
Cc1ccc2nc(SCC(=O)c3c[nH]c4ccccc34)[nH]c2c1 | -2.6 | -0.8 | 0.678 | -2.8 | 5.6 | 12.2% | 3.4
CCOC(=O)c1c(NC(=O)C2=C(C)NC(=S)NC2c2ccc(C)cc2)sc(C)c1C (stereo unspecified) | -5.9 | -1.1 | 0.709 | -2.3 | -2.4 | ? | -136.0

An unsorted share of the library (roughly 2.1% active in at least one column).
